Assay outcomes: PubChem BioAssay, National Center for Advancing Translational Sciences (NCATS)
RE007 growth inh: qHTS Assay for Inhibitors of the HIV-1 protein Vpr; S. pombe RE007 Vpr strain, BacTiter-Glo ATP luminescence, 24 h; control for the full effect not named in the record; Potency, µM (top dose mostly 92.2 µM), for the others: at the highest dose activity change, negative = less growth; 360,000 tested, 0.21% active; AID 651644, 2012; active = well fitted falling curve with a large enough effect; inconclusive = small, poorly fitted or top-dose-only effect; inactive = no such curve, though single readings can be large or run the other way;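 also: % is scaled to controls: 0 for no effect and ±100 for the full control effect; nearly all actives have a fitted effect of over 50% in size; the assay follows cell death caused by Vpr and the record does not say whether a fall means rescue or toxicity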
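Fission yeast RE007 carrying one integrated HIV-1 vpr copy, seeded at OD 0.01 in PMG+AL medium with 23 nL pinned compound. Grown 24 h at 30 degrees; viability read by BacTiter-Glo luminescence after 5 min.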
Cruzain inh noDet: qHTS Assay for Promiscuous and Specific Inhibitors of Cruzain (without detergent); purified cruzain, Z-FR-AMC fluorescence, no detergent; 200,000 tested, 2.3% active; Cruzipain (Trypanosoma cruzi), P25779; Potency, µM, for the others: max response, negative = inhibition, usual class: inhibitors; AID 1476, 2009;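 also: plate controls were enzyme without inhibitor for no effect and buffer without enzyme for full effect; nearly all actives have a fitted effect of over 40% in size; top concentration of the series not given in the record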
Target sequence (P25779 123-467 limits assumed): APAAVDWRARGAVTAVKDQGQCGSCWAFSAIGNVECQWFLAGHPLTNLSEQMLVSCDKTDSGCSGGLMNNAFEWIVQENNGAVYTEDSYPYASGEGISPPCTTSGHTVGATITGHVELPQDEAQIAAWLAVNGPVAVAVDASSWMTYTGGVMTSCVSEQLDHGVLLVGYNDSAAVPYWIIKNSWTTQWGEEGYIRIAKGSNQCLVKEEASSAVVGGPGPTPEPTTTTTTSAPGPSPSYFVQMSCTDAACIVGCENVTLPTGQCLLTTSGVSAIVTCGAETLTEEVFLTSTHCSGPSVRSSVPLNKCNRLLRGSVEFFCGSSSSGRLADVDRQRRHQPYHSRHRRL
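Detergent-free condition (0.00005% Triton X-100) in acetate buffer pH 5.5 with DTT. 1.5 nM enzyme and compound were pre-mixed 15 min, then 2 uM Z-FR-AMC substrate added; reaction progress from fluorescence change between first and third reads (60 s).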
Cruzain Triton: qHTS Assay for Promiscuous and Specific Inhibitors of Cruzain (with detergent); purified cruzain, Z-FR-AMC fluorescence, 0.01% Triton; 200,000 tested, 0.43% active; Cruzipain (Trypanosoma cruzi), P25779; Potency, µM, inactives show max response, negative = inhibition, hits mostly inhibitors;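 also: plate controls were neutral wells for no effect and buffer without enzyme for full effect; nearly all actives have a fitted effect of over 40% in size; top concentration of the series not given in the record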
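15 min RT preincubation of 1.5 nM cruzain with compound, then 2 uM Z-FR-AMC added; kinetic AMC fluorescence, 60 s delta. Triton X-100 0.01%, pH 5.5.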
Marburg entry inh: qHTS for inhibitors of binding or entry into cells for Marburg Virus; Potency, µM (series often up to 37.8 µM), for the others: at the top dose activity change, negative = inhibition, hits mostly inhibitors; Marburg virus pseudotyped entry inhibition, cell reporter; control for the full effect not named in the record; about a third of the inactives were read at about 46 µM; 300,000 tested, 1.8% active; active = well fitted inhibition curve with a large enough effect; inconclusive = small, poorly fitted or top-dose-only effect, or effect the other way; inactive = flat fitted curve, though single readings scatter; tested in HEK293 cells; about a fifth of its hits are not listed in these tables; also: % is scaled to controls: 0 for no effect and ±100 for the full control effect; luciferase read-out
StopGo reporter: High Throughput Screening for Foot and Mouth Disease Virus Antivirals | human cells with a luciferase reporter of 2A StopGo recoding; control for the full effect not named in the record | Potency, µM (series often up to 57.9 µM), for the others: at the highest dose signal change, negative = less light | 410,000 tested, 1.2% active; active = well fitted falling curve with a large enough effect; inconclusive = small, poorly fitted or top-dose-only effect; inactive = no such curve, though single readings can be large or run the other way; tested in HEK293T cells; also: % is scaled to controls: 0 for no effect and ±100 for the full control effect; nearly all actives have a fitted effect of over 45% in size; luciferase light after 4 h
SARS PLP yeast: qHTS of Yeast-based Assay for SARS-CoV PLP; Potency, µM (titrated, usually from 32.9 µM), for the others: at the top dose activity, positive = growth rescue; S. cerevisiae expressing SARS-CoV PLpro, growth rescue; control for the full effect not named in the record; 330,000 tested, 0.19% active; active means well fitted rising curve with a large enough effect; inconclusive means small, poorly fitted or top-dose-only effect; inactive means no such curve, though single readings can be large or run the other way; also: 0% is about no effect; nearly all actives have a fitted effect of over 55% in size; growth read by luminescence after 48 h
NS1 inh: qHTS Assay for Inhibitors of Influenza NS1 Protein Function; 270,000 tested, 0.4% active; AID 2326, 2010; S. cerevisiae slowed by influenza A NS1, growth recovery by OD600; Potency, µM (doses to about 46.1 µM), inactives show top-dose activity, positive = more growth; active means well fitted rising curve with a large enough effect; inconclusive means small, poorly fitted or top-dose-only effect; inactive means no such curve, though single readings can be large or run the other way; also: nearly all actives have a fitted effect of over 50% in size
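Growth recovery, yeast-based: influenza A NS1 expressed in S. cerevisiae causes slow growth, and suppressors are detected by OD600. The parent strain without NS1 is used as positive control.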
LASV entry inh: qHTS for Inhibitors of binding or entry into cells for Lassa Virus. Potency, µM (doses to about 37.9 µM), inactives show at the highest dose activity change, negative = inhibition, actives largely listed as inhibitors. AID 540256, 2011. Lassa virus pseudotype entry inhibition, cell reporter; control for the full effect not named in the record. 300,000 tested, 1.2% active; active means well fitted inhibition curve with a large enough effect; inconclusive means small, poorly fitted or top-dose-only effect, or effect the other way; inactive means flat fitted curve, though single readings scatter; tested in HEK293 cells; also: % is scaled to controls: 0 for no effect and ±100 for the full control effect; nearly all actives have a fitted effect of over 50% in size; luciferase read-out
Numbers without * were called inactive; ? = inconclusive; . = not tested or not shown; & = joins results of further samples; [ ] = dose if it differs, or a comment. Unless noted, calls follow the shape of the dose curve; as a rule, active = well fitted curve in the direction sought with a large enough effect; inconclusive = small, poorly fitted or top-dose-only effect, or another doubt; inactive = no such curve, though single readings can be large; an effect the other way counts as inactive or inconclusive. Potency is read from the fitted curve at half-maximal effect.

SMILES	RE007 growth inh	Cruzain inh noDet	Cruzain Triton	Marburg entry inh	StopGo reporter	SARS PLP yeast	NS1 inh	LASV entry inh
COc1ccc(C(=O)N=c2sc3c(C)ccc(OC)c3n2C)cc1	8%	-20%	-21%	.	35%[activator]	-3%	10%	.
CN(C)S(=O)(=O)n1cc(/C=C(\NC(=O)c2ccccc2F)C(=O)NCCCn2ccnc2)c2ccccc21	0%	21%	-2.6%	0%&0%[46.1 µM]	28%&-28%	8%	4%	1%[46.1 µM]
CC(Sc1nncn1C)C(=O)Nc1cc(C(F)(F)F)ccc1N1CCOCC1 (stereo not given)	-15%	.	.	3%[46.1 µM]	9%	-1%	.	13%[46.1 µM]
O=C(/C=N/O)Nc1ccc(F)cc1	10%	-4%	7.3%	0%	11%	0%	-2%	-7%
CCOc1ccc(C(=O)Nc2cc(C)c3c(=O)oc4ccccc4c3n2)cc1	6%	-44%	-3.6%	.	6%	-10%	-56%	.
COc1ccc(C(=O)Nc2ccc(C(F)(F)F)n(C)c2=O)cc1	-23%	-9%	-1.7%	.	46%[activator]	7%	1%	.
CC1NC(C)(C)Cc2c1ccc1ccccc21 (stereo not given)	-3%	.	.	?	-10%	0%	-1%	?
O=C1NC(=O)C(CCc2ccncc2)(c2ccccc2)C(=O)N1	-12%	1%	-0.4%	0%	-24%	4%	1%	0%
CC(C)(C)c1ccc(C(=O)NCC(c2ccco2)S(=O)(=O)c2ccc(F)cc2)cc1 (stereo not given)	.	1%	-7.9%	.	?	.	.	13µM*
Clc1cccc(Cl)c1C1Nc2cccc3cccc(c23)N1	-20%	.	.	?	-23%	-8%	-8%	?
O=C(C[n+]1cc(-c2ccccc2)n2c1CCC2)Nc1nc(-c2ccccc2)cs1	8%	-20%	-9.8%	20%	-8%	18%	2%	10%
COc1ccc(OC)c(C(c2c(O)nc(SC)[nH]c2=O)c2c(O)nc(SC)[nH]c2=O)c1	4%	.	.	4%	-22%	5%	12%	-18%
c1cn(C23CC4CC(CC(C4)C2)C3)cn1	3%	2%	-1.5%	1%	-1%	1%	-5%	19%
CCOC(=O)/C(C#N)=C1/C=Cc2ccccc2N1CC	-12%	-4%	-8.8%	9%	-9%	4%	-3%	-6%
NC(=O)C1CCN(c2ccc(S(=O)(=O)N3CCCCC3)cn2)CC1	14%	.	.	-1%[46.1 µM]	-23%	-1%	1%	10%
O=C(Cc1ccccc1)NS(=O)(=O)c1ccc(N=NN2CCOCC2)cc1	-5%	.	.	19%[46.1 µM]	44%[activator]	-1%	2%	1%
NC(=O)CN1CCOCCOCCN(CC(N)=O)CCOCCOCC1	-13%	6%	0.6%	11%	16%	-2%	14%	-4%
CCOC(=O)C1=C(c2ccc(O)cc2)NC(=O)NC1C (stereo not given)	-14%	.	.	2%[46.1 µM]	-15%	.	.	20%
CCOC(=O)N1CCC(NC(=O)C(CC(C)C)NC(=O)C2CCCCC2)CC1 (stereo not given)	13%	6%	-0.2%	1%&1%	19%	2%	2%	-3%
CCN(CC)C(=O)C(=O)c1cc(C)n(-c2ccc(F)cc2)c1C	12%	.	.	?	1%	1%	0%	-19%
CC1CCCN(C(=O)C2CCN(S(=O)(=O)c3cccc4cccnc34)CC2)C1 (stereo not given)	7%	-1%	4.7%	.	-29%	1%	-25%	.
O=C(OCc1ccc2c(c1)OCO2)c1cccc(S(=O)(=O)N2CCCCC2)c1	7%	-3%	1.3%	9%	6%	-5%	7%	?
COc1cccc(NS(=O)(=O)c2ccc3c(c2)NC(=O)CC(=O)N3)c1	-5%	.	.	.	10%	0%	1%	.
Cc1c(Cl)cccc1NC(=O)N1CCN(C(=O)c2ccco2)CC1	-1%	.	.	1%[46.1 µM]	-12%	2%	6%	1%
COc1ccc(CCN2C(=O)CC(N3CCN(c4ccccn4)CC3)C2=O)cc1OC (stereo not given)	-14%	2%	1.4%	-17%[46.1 µM]	-23%	-7%	-17%	-3%

The results go on.
SMILES	RE007 growth inh	Cruzain inh noDet	Cruzain Triton	Marburg entry inh	StopGo reporter	SARS PLP yeast	NS1 inh	LASV entry inh
Cc1ccc(S(=O)(=O)NC2c3cccc4cccc(c34)C2Sc2n[nH]c(N)n2)cc1 (stereo not given)	1%	-7%	-8.2%	?	1%	?	19%	-27%
O=C1OCC(CC2=C(O)C(=O)OC2)=C1O	12%	.	.	-19%[46.1 µM]	-14%	.	.	-6%[46.1 µM]
CS(=O)(=O)c1ccc(Cl)c(NC(=O)CSc2nncn2-c2ccccc2)c1	0%	.	.	-14%[46.1 µM]	-25%	3%	3%	.
CCCNC(=O)COc1coc(CN2CCN(C(=O)c3ccco3)CC2)cc1=O	-19%	.	.	8%	1%	4%	.	-5%
Cc1cccc(Oc2nc(CN3CCOCC3)nc3sc4c(c23)CCCC4)c1	2%	?	-6.9%	?	-8%	-27%	-34%	-5%
Nc1cccnc1Sc1ccccc1	-14%	.	.	15%[46.1 µM]	13%	.	.	7%
Cc1[nH]n(-c2ccccc2)c(=O)c1-c1cccc(Cl)c1	-3%	-10%	5.9%	-19%[46.1 µM]	-17%	-40%	-56%	-2%
COc1ccc(-c2nc3ccccc3n3c(-c4ccccc4)c4c(=O)n(C)c(=O)n(C)c4c23)cc1	.	-1%	-0.9%	14%[46.1 µM]	-14%	.	.	?
CCC(c1nnnn1CS(=O)(=O)c1ccc(C)cc1)N1CCN(c2nc3ccccc3s2)CC1 (stereo not given)	1%	?	-1.9%	8.2µM*	.	7%	2%	?
CCCNC(=O)c1cc(S(=O)(=O)N2CCc3ccccc32)ccc1F	-4%	8%	-3.9%	0%	3%	-14%	15%	31%[14.3 µM]
COc1cccc(Nc2ncnc3sccc23)c1	-29%	.	.	19%[46.1 µM]	9%	-8%	-17%	?
O=C(Nc1cc(Br)ccc1O)C1CC(c2ccccc2Cl)=NO1 (stereo not given)	-2%	.	.	.	58%[activator]	-5%	-5%	.
CCOc1ccc(N(CC(=O)Nc2ccc3c(c2)OCCO3)S(=O)(=O)c2c(C)noc2C)cc1	-1%	16%	4.6%	-1%	-12%	1%	-51%	.
Cc1cc(N2C(=O)CC(N3CCN(C(c4ccccc4)c4ccccc4)CC3)C2=O)no1 (stereo not given)	-26%	?	1.1%	13%	-20%	3%	-24%	0%
Cc1ccc(NC(=O)Nc2ccc(C(=O)N3CCOCC3)cc2)cc1	-4%	-8%	-0.6%	13%	48%[activator]	8%	-17%	0%
O=C(N/N=C/c1cccc2ccccc12)c1n[nH]c2c1CCCC2	3%	.	.	?	31%[activator]	1%	1%	-35%[46.1 µM]
COCCN(Cc1cc2cc3c(cc2[nH]c1=O)OCO3)C(=O)c1cccs1	.	-3%	-5.2%	-2%	.	-4%	-1%	.
O=C(Nc1ccccn1)c1ccc2c(c1)S(=O)(=O)c1ccccc1C2=O	-6%	-8%	-10%	17%&17%	7%	8%	6%	5%
CCC1Oc2ccc(C)cc2N(CC(=O)NCc2ccco2)C1=O (stereo not given)	-19%	.	.	.	-11%	1%	-3%	.
CC(C)CC(=O)Nc1c2c(nn1-c1cccc(Cl)c1)CS(=O)(=O)C2	15%	.	.	.	-16%	0%	2%	.
CCOc1ccc(CC(=O)NNC(=S)NC2CCCCC2)cc1OCC	22%	-8%	-2.0%	-25%	-6%	-1%	1%	13%
CCC1CCC2(CC1)NC(CO)(CO)CO2 (stereo not given)	-18%	4%	7.6%	-1%	.	1%	-6%	13%
CC1(C)Cc2c(cnn2-c2ccc(F)cc2)C(NC(=O)CCCN2CCCCC2=O)C1 (stereo not given)	0%	.	.	-8%	24%	-2%	7%	-2%
Cc1ccc(/C=N/n2c(C)nnc2C)s1	-1%	1%	0.3%	11%	-1%	-5%	5%	-17%
O=C(c1cc(-c2ccc(Cl)c(Cl)c2)on1)N1CCCC1	.	-15%	-5.5%	.	.	-7%	-9%	.

More entries:
SMILES	RE007 growth inh	Cruzain inh noDet	Cruzain Triton	Marburg entry inh	StopGo reporter	SARS PLP yeast	NS1 inh	LASV entry inh
O=C(NC1CC2CCCC(C1)N2S(=O)(=O)c1ccccc1)c1ccco1 (stereo not given)	0%	-8%	5.9%	2%	.	?	8%	4%
COc1cc(C(=O)NCCN2CCN(C(=O)c3cc(OC)c(OC)c(OC)c3)CC2)cc(OC)c1OC	10%	.	.	.	-2%	6%	-20%	.
O=C(COc1ccc([N+](=O)[O-])cc1)Nc1ccncc1	1%	.	.	-24%[46.1 µM]	-26%	3%	.	?
C=CCNC(=O)COc1ccccc1C#N	-2%	.	.	.	33%[activator]	-5%	0%	.
CCn1nc(C(=O)NNC(=O)c2ccc(OC(F)F)cc2)c2ccccc2c1=O	-21%	.	.	0%	-13%	-5%	.	11%
Cc1ccc(NC(=O)C2CCCN2S(=O)(=O)c2ccc(-c3ccc(=O)[nH]n3)s2)c(C)c1 (stereo not given)	12%	.	.	-13%[46.1 µM]	11%	-2%	-5%	-4%[46.1 µM]
COc1ccc(Cl)cc1CC=NNC(=O)c1cccc(C)c1O	3%	.	.	13%	-11%	.	.	8%
CCc1ccc(CNC(=O)CN(c2ccc(C)cc2)S(=O)(=O)N(C)C)cc1	.	13%	-5.4%	-2%[46.1 µM]	1%	.	.	?
COC(=O)C1C(C(=O)O)C2(Cl)C(Cl)=C(Cl)C1(Cl)C2(Cl)Cl (stereo not given)	1%	.	.	?	-20%	.	.	0%[46.1 µM]
CC(C)(C)OC(=O)NC(Cc1ccccc1)C(=O)NCCCC(=O)O (stereo not given)	6%	.	.	3%[46.1 µM]	2%	6%	-4%	-6%
Cc1ccc(CNC(=O)C(=O)NCCCn2ccnc2)cc1	-1%	.	.	4%	-9%	.	.	-23%
CC(=O)Nc1ccc(S(=O)(=O)Nc2nc3ccccc3nc2Nc2ccc3ccccc3c2)cc1	-2%	7%	-8.7%	15%	-3%	7%	4%	?
COc1cccc(C(=O)O/N=C(\N)c2ccccn2)c1OC	-13%	.	.	.	-29%	-3%	-4%	.
CC(C)CCNC(=O)c1cccc(Cl)c1	-28%	1%	-2.1%	10%	34%[activator]	-4%	-16%	-26%
